miR-21 FLuc = qHTS Assay for Modulators of miRNAs and/orActivators of miR-21. 340,000 tested, under 10 active. HeLa miR-21 FLuc reporter, luciferase, 48 h. Potency, µM (highest dose often 38.3 µM), without a hit: top-dose reporter change, positive = more light; active = well fitted rising curve with a large enough effect; inconclusive = small, poorly fitted or top-dose-only effect; inactive = no such curve, though single readings can be large or run the other way;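 further: % of control where 0% means no effect; miR-21 action dims this reporter so a rising signal means less miR-21 action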
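Compounds were titrated across several concentrations (up to approximately 40 uM) and incubated 48 hours with HeLa miR-21-FLuc reporter cells (miR-21 target sequence downstream of FLuc, endogenous miR-21). Readout was firefly luciferase luminescence after lytic detection reagent.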
GLA inh pH 4.5 = qHTS Assay for Inhibitors of Human alpha-Galactosidase at pH 4.5; purified enzyme, 4-MU-alpha-Gal fluorescence, pH 4.5; activity change, negative = inhibition, % at 105 µM; 230,000 tested, under 10 active; inconclusive = small, poorly fitted or top-dose-only inhibition, or a rising curve; inactive = flat fitted curve, though single readings scatter; no compound was filed as active;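 further: 0% = full activity with enzyme and -100% = basal without enzyme; dose as in the result columns while the protocol names 77 µM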
Target sequence (P06280 whole entry, looked up): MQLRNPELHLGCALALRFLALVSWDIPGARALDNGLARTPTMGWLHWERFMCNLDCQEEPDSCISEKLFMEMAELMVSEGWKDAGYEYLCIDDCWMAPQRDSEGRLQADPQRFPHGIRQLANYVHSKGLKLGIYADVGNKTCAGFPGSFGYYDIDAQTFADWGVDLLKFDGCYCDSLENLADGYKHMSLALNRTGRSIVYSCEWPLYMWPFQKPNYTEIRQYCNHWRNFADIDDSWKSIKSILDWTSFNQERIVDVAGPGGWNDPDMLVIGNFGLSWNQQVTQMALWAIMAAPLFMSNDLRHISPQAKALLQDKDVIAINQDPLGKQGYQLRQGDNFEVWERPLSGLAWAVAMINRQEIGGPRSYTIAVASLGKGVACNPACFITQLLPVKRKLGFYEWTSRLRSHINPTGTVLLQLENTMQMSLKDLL
Rango-impB inh = qHTS Assay for Inhibitors of Rango (Ran-regulated importin-beta cargo) - Importin beta complex formation; Importin subunit beta-1 (Homo sapiens), Q14974; Rango CFP/YFP FRET sensor + importin beta, 45 min; Potency, µM (titrated, usually from 92.2 µM), for inactives: at the highest dose inhibition of complex formation; hit rate 0.031% among 340,000; AID 540263, 2011; active = rising FRET ratio curve, often small or poorly fitted; inconclusive = mostly compound fluorescence or quenching in the first reads; inactive = flat curves in all reads;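 further: potency means the concentration at half of the fitted maximal effect; 0% = DMSO wells and 100% = buffer wells lacking importin beta; nearly all actives have a fitted effect of over 15% in size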
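Inhibition scored from the CFP 486 nm/YFP 530 nm FRET ratio 45 min after adding 0.125 microM importin beta to 50 nM Rango biosensor preincubated 5 min with compound (room temperature, PBS with DTT, Tween-20, BSA). No-importin wells as positive control.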
Rango dissoc inh = qHTS Assay for Inhibitors of RanGTP induced Rango (Ran-regulated importin-beta cargo) - Importin beta complex dissociation. Snurportin-1 (Homo sapiens) + GTP-binding nuclear protein Ran (Homo sapiens) + Importin …. hit rate 0.071% among 340,000. Potency, µM (series often up to 46.1 µM), inactives show at the highest dose activity change, negative = inhibition. Biochemical FRET Rango-importin beta, RanGTP-induced dissociation. AID 540253, 2011; active means falling FRET ratio curve, often poorly fitted, with flat reads before Ran was added; inconclusive means other falling curves, or compound fluorescence or quenching; inactive means flat or rising ratio curve;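 further: potency means the concentration at half of the fitted maximal effect; % of control where 0% means no effect; nearly all actives have a fitted effect of over 45% in size; -100% = wells without RanGTP and RCC1; the record marks most hits as doubtful in a second field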
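FRET read at 45 min, room temperature: inhibitors block the CFP/YFP signal rise when RanGTP (0.6 uM Ran, 2 mM GTP, 0.2 uM RCC1) frees Rango (0.1 uM) from importin beta (0.25 uM). Pre-read after 5 min compound exposure flags interference.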
The depositor's hits bear a star; u = inconclusive; x = not tested or not shown; & = joins results of further samples; [ ] = another dose, or the depositor's remark. A portion of the library, so the mix of outcomes need not match the whole.

miR-21 FLuc,GLA inh pH 4.5,Rango-impB inh,Rango dissoc inh,Molecule
x,x,0.1%,2.3%,Cc1cccc(NC(=O)Nc2ccc(S(=O)(=O)Nc3onc(C)c3C)cc2)c1
x,x,-0.8%,-10.2%,Nc1ncnc2c1ncn2C1OC(C(=O)NC2CC2)C(O)C1O (centres undefined)
-0.3%,3.7,-0.3%,27.1%,Cc1nc2nc(Cc3ccccc3)[nH]n2c(=O)c1Cl
12.0%,x,-0.2%,-0.2%,COc1ccc(CNC(=O)CCn2ccc3cc(S(=O)(=O)N4CCCC4)ccc32)cc1
-24.5%,6.2,-0.2%,-7.7%,CSc1ccccc1C(=O)Nc1cc(C)cc(C)c1
-1.7%,8.2,u,-29.1%,O=C(O)Cc1ccc(N=Cc2c(O)ccc3ccccc23)cc1
x,x,-0.2%,-2.3%,CC(C)(C)OC(=O)N1CCC(C(=O)Nc2cccc(C(=O)N3CCCCC3)c2)CC1
1.6%,u,3.2%,2.6%,COC(=O)C1=C(C)Nc2nnnn2C1c1ccc(Cl)cc1Cl (centres undefined)
0.3%,0.9,0.1%,-0.4%,CN(C(=O)CSc1nnc(Cc2cccc3ccccc23)n1N)C1CCS(=O)(=O)C1 (centres undefined)
-7.0%,-0.3,-0.6%,1.4%,COc1cccc(CNC(=O)C2CCN(S(=O)(=O)c3ccc(F)cc3)CC2)c1
-7.0%,x,-4.8%,-4.7%,COc1ccc(CNc2nc(-c3ccccc3)nc3ccccc23)cc1OC
x,x,2.9%,0.5%,COc1ccc(OC)c(-c2csc(NC(=O)COC(=O)C3CC3)n2)c1
-2.8%,-7.8,u,-13.6%,Cc1nnc(SCC(=O)Nc2cc(-c3cc(C)c(C)cc3C)nn2-c2ccccc2)s1
-13.0%,-0.7,0.8%,-12.7%,Cc1nnc(Nc2ccccc2F)s1
-55.0%,9.9,4.8%,3.9%,CCCCCn1cnc2c(sc3nc4c(cc32)CSC(C)(C)C4)c1=O
4.6%,x,1.9%,0.4%,O=[N+]([O-])c1ccccc1/C=N\Nc1nccs1
x,x,2.5%,5.4%,CC1CCC(O)(C(C(=O)O)c2ccccc2)CC1 (centres undefined)
-6.7%,-2.9,0.4%,-18.1%,CN1C(=O)c2ccc(NC(=O)c3c(F)c(F)c(F)c(F)c3F)cc2C1=O
-20.0%,0.3,11.1%,5.1%,CCOCCn1c(SCCCc2ccccc2)nc2c1c(=O)[nH]c(=O)n2C
-3.2%,x,-0.5%,-10.0%,Cc1ccc(C)c(-c2nnc(NC(=O)Cc3ccc(F)cc3)o2)c1
-35.9%,-1.9,3.6%,0.0%,COC(=O)c1sccc1NC(=O)Cc1ccc(OC)cc1
-12.2%,x,-0.9%,1.1%,O=C(NC1CCCCCC1)c1ccco1
x,x,3.7%,u,O=S(=O)(NCCC1=CCCCC1)c1ccccc1Br
-0.5%,2.6,-3.6%,-10.7%,O=C(Nc1nc2ccccc2[nH]1)c1cc2ccccc2o1
x,x,3.3%,29.0%,C[C@H]1CN([C@@H](C)CO)C(=O)c2cc(NC(=O)C3CCCCC3)ccc2O[C@H]1CN(C)Cc1ccc(-c2ccccc2)cc1
0.0%,5.7,-1.2%,26.6%,CC1(C)CC(C2N3CC4(C)CN2CC(C)(C3)C4=O)CCO1 (centres undefined)
-1.1%,0.3[21.1 µM],u,-10.0%,O=C(COC(=O)C1CCN(C(=O)Nc2ccccc2)CC1)NCC(F)(F)F
-57.8%,-5.6,2.9%,22.8%,C/C(=N\N=C\c1ccccc1F)c1nnn(-c2nonc2N)c1C
2.4%,-3.0,-1.2%,-1.1%,COc1ccccc1CN1CCCC(C(=O)N(C)Cc2ccccc2)C1 (centres undefined)
x,x,u,7.4%,CC(C)(C)SCCNC(=O)CSc1ccccc1
-2.1%,11.6,-1.9%,-3.7%,Nn1c(SCC(=O)N2CCN(S(=O)(=O)c3ccc(Cl)cc3)CC2)nnc1-c1cccs1
x,x,-1.3%,-8.6%,CCCCCCSc1ccc([C@H]2N[C@@](Cc3ccccc3)(C(=O)OC)[C@H]3C(=O)N(C)C(=O)[C@@H]23)cc1
-0.9%,u,u,u,CCOC(=O)C1=CN(C)C=C(C(=O)OCC)C1c1ccsc1
x,x,-0.8%,18.6%,CSc1ccc(Cl)c(C(=O)OCC(=O)N2CCN(C(=O)c3ccco3)CC2)c1
-13.0%,0.1,0.3%,-0.6%,COc1ccc(C/C(N)=N/OC(=O)Cc2ccc(OC)c(OC)c2)cc1
15.6%,x,-0.2%,u,COCc1ccc(C(=O)NC2CCCc3c2cnn3-c2ccc(C)c(C)c2)o1 (centres undefined)
8.2%,-1.2,-1.6%,-6.7%,CCOC(=O)c1cccc(NC(=O)C2CCCN(S(=O)(=O)c3c(C)nn(C)c3C)C2)c1 (centres undefined)
3.5%,-7.3,4.5%,19.5%,COc1ccc(S(=O)(=O)Cc2ccc(C(=O)N3CCN(c4ccccc4)CC3)o2)cc1
-13.3%,-14.2,-6.1%,-30.0%,CCOC(=O)/C=C1\SCC(=O)N1Cc1nnc(-c2ccccc2Br)o1
4.9%,2.3,1.8%,1.8%,COCCNC(=O)Cn1cnc([N+](=O)[O-])n1
-11.8%,x,-4.2%,-12.3%,COc1ccc(-c2nonc2NC(=O)c2oc3ccccc3c2C)cc1OC
-24.4%,-5.9,u,u,Brc1ccc(-c2ccc(/C=N/Nc3nc4ccccc4[nH]3)o2)cc1
-5.2%,x,u,17.2%,Cc1ccc(C(OC(=O)c2ccco2)C(=O)NC2CCCC2)cc1 (centres undefined)
x,x,-1.4%,-12.4%,COc1ccc(C(=O)Nc2nc(CC(=O)NCCc3ccccc3)cs2)cc1
-2.5%,-3.7,-2.7%,-5.6%,Cc1ccc2cc(CN(CC3CCCO3)C(=O)C(C)C)c(=O)[nH]c2c1 (centres undefined)
x,x,4.9%,3.8%,O=C(N/N=C/c1cc(Cl)cc([N+](=O)[O-])c1O)c1cccc(S(=O)(=O)N2CCOCC2)c1
0.2%,4.1,3.3%,2.5%,CCOc1ccc(N2C(=O)CC(N(CCc3ccccc3)C(=O)/C=C/C(=O)O)C2=O)cc1 (centres undefined)
-2.3%,-4.2,-4.3%,8.4%,Cn1c(=O)c2c(ncn2CC(=O)N2CCN(c3ccc(F)cc3)CC2)n(C)c1=O
1.7%,-9.9,-1.9%,-6.5%,CCN(CC)CCn1c(NC(=O)c2ccc(C(F)(F)F)cc2)nc2ccccc21
28.3%,-2.2,-0.7%,-8.2%,CC(C)(C)c1cc[n+](C2=C([O-])c3ccccc3C(=O)/C2=N\S(=O)(=O)c2cccs2)cc1

Complete entries, looked up by structure. Values in the order: miR-21 FLuc, GLA inh pH 4.5, Rango-impB inh, Rango dissoc inh
CN1C(=O)c2ccc(NC(=O)c3c(F)c(F)c(F)c(F)c3F)cc2C1=O is entered as -6.7%, -2.9, 0.4%, -18.1%
CC(C)(C)SCCNC(=O)CSc1ccccc1 is entered as x, x, u, 7.4%
COc1ccc(CNC(=O)CCn2ccc3cc(S(=O)(=O)N4CCCC4)ccc32)cc1 is entered as 12.0%, x, -0.2%, -0.2%
CCCCCCSc1ccc([C@H]2N[C@@](Cc3ccccc3)(C(=O)OC)[C@H]3C(=O)N(C)C(=O)[C@@H]23)cc1 is entered as x, x, -1.3%, -8.6%

Other results:
miR-21 FLuc,GLA inh pH 4.5,Rango-impB inh,Rango dissoc inh,Molecule
-3.1%,0.9,-1.8%,5.3%,CCOC(=O)C1CCN(C(=O)C2(NC(=O)Nc3cccc(F)c3)CCCCC2)CC1
-41.5%,x,0.6%,33.5%,COc1c(C(=O)Nc2nccs2)ccc2ccccc12
-2.5%,-3.0,0.2%,-10.5%,CCOc1cc(/C=N/NS(=O)(=O)c2ccc(OC)cc2)ccc1OCCN1CCOCC1
-9.1%,x,7.7%,-6.6%,CC1(C)CC(=O)C=C(C(=O)NC2CCCc3c2cnn3-c2cc(F)cc(F)c2)O1 (centres undefined)
-1.6%,-4.7,4.7%&0.2%,-2.2%&0.4%,NS(=O)(=O)Cc1noc2ccccc12
x,x,-3.2%,10.6%,Cc1csc(=O)n1CC(=O)OCC(=O)NCc1ccc(Cl)cc1Cl
0.3%,-14.7,-0.1%,-3.3%,C[C@@H]1CN(Cc2nc(-c3cnccn3)no2)C[C@H](C)O1
-2.9%,x,0.1%,0.8%,O=C(NCc1ccc2c(c1)OCO2)C1CC(=O)N(CCc2ccc(F)cc2)C1 (centres undefined)
2.5%,x,1.9%,-1.9%,COc1ccc(/C=C(/NC(=O)c2ccco2)C(=O)NCc2ccco2)cc1OC
-0.1%,-10.2,-2.3%,-21.5%,COc1cccc(C2Nc3c(F)cc(Br)cc3C3C=CCC32)c1OC (centres undefined)
-7.0%,0.3,-1.2%,12.9%,Cc1nc2scc(-c3cccs3)c2c(=O)n1N
0.2%,-1.6,0.9%,0.8%,CCCn1nnc2c(=O)oc3ccccc3c21
1.0%,-6.7,1.2%,-8.1%,CNC(=O)C(Sc1ccccc1)c1ccccc1 (centres undefined)
1.8%,0.6,-1.5%,1.2%,CCOC(=O)Cn1c(=O)c2c(nc(N3CCCCC3)n2C)n(C)c1=O
6.3%,x,-1.8%,7.9%,COc1ccc(C(=O)Nc2ccc(NC(=O)C3CC3)nc2)cc1
x,x,5.6%,-7.2%,O=S1(=O)[C@H]2C[C@H](CO)O[C@@]2(CO)CN1Cc1ccc(-c2cccc(Cl)c2)cc1
-2.5%,x,8.0%,-7.2%,CC(C)Cn1c(=O)c2sccc2n2c(CCCC(=O)N3CCC(N4CCCCC4)CC3)nnc12
0.0%,-10.5,2.3%,-13.7%,NS(=O)(=O)c1cccc(NC(=O)COC(=O)Cc2ccc(S(=O)(=O)N3CCCCC3)s2)c1
-0.3%,-1.8,-1.0%,0.5%,Cc1ccc2c(c1)-c1c(ssc1=S)C(C)(C)N2C(=O)CN1C(=O)c2ccccc2C1=O
-0.9%,-1.9,1.8%,-9.0%,CCc1nnc(NC(=O)C2CCN(c3cnccn3)CC2)s1
-4.7%,3.8,3.6%,-21.5%,COc1ccc(N2C(=O)C3CCCN3C2c2cccc(F)c2)cc1Cl (centres undefined)
x,x,-0.4%,4.0%,CC1Cc2ccccc2N1C(=O)COC(=O)/C=C/c1ccc(F)cc1 (centres undefined)
-5.3%,1.3,-0.2%,-8.7%,CCC(C)NC(=O)C1c2ccccc2C(=O)N(c2ccc(OC)cc2)C1c1ccc(OC)cc1 (centres undefined)
x,x,-1.1%,0.6%,O=C(CSC(=S)N1CCCC1)N(Cc1nnc(-c2ccccc2Cl)o1)C1CC1
-7.1%,3.0,-0.5%,-8.4%,O=C(CN1CCN(Cc2ccccc2Cl)CC1)N/N=C/c1ccccn1
-11.0%,0.1,-6.4%,-22.9%,CCOc1ccc(NC(=O)c2ccco2)cc1
1.0%,x,1.3%,-9.1%,O=C1C2C3CCC(CC3)C2C(=O)N1c1ccccc1 (centres undefined)
u,-7.2,6.1%,u,C[C@@H](C(=O)NCCCCCC(=O)O)n1nnc2ccccc2c1=O
u,x,-2.1%,7.2%,CC(C)NC(=O)NC(=O)COC(=O)c1c2c(nc3ccccc13)CCC2
-0.1%,-2.6,2.8%,17.1%,COC(=O)c1ccccc1NC(=O)CSc1nc(-c2ccco2)cc(C(F)(F)F)n1
-6.7%,-7.1,u,u,CC(=O)NC1=NC(=O)/C(=C/c2cc(C)n(-c3cccc(C(=O)O)c3)c2C)S1
-0.1%,1.4,0.0%,0.0%,CN1CCN(c2nc(-c3cccs3)cc(C(F)(F)F)n2)CC1
22.1%,-3.2,1.5%,-7.1%,OCCN1CCN(c2nc(-c3ccccc3)nc3c2oc2ccccc23)CC1
-0.7%,x,0.4%,3.0%,O=C(Cn1c(C(=O)O)cc2ccccc21)c1ccccc1
x,x,1.7%,3.7%,C[C@@H]1CN([C@H](C)CO)C(=O)c2cc(NS(=O)(=O)c3ccc(F)cc3)ccc2O[C@@H]1CN(C)Cc1ccc(Cl)c(Cl)c1

Screens (PubChem BioAssay)
